PV pol inh: poliovirus RNA polymerase inhibition | 150,000 compounds, 0.66% hits | AID 588519 | poliovirus polymerase elongation, fluorescence polarization; active compounds read low | P03300 | % elongation, % (compound at 16.7 µg/mL); in the data active means % elongation below about 90%; further: some results filed as inactive read as strong as hits
Target sequence (P03300 1749-2209 limits assumed): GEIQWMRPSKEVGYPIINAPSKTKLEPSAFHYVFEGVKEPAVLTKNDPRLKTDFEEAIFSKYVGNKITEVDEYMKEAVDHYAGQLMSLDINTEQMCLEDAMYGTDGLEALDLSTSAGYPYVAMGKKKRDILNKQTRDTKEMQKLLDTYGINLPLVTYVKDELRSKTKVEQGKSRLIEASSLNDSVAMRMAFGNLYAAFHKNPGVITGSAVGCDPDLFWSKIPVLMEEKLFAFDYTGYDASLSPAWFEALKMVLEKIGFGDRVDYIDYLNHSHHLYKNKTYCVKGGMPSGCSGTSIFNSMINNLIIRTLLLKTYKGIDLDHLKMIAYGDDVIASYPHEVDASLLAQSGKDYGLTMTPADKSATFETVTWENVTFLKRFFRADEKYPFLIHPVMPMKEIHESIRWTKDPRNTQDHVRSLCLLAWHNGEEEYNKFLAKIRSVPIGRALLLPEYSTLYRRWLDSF
PV pol inh intensity: also measured in PV pol inh; calls as there; % elongation; measured here: total intensity read-out; formula for this scale not given here;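 total fluorescence in place of polarization; lower means less elongation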
The depositor's hits bear a star.

SMILES | PV pol inh | PV pol inh intensity
COc1ccc(-n2nc(C(=O)Nc3ccc(C(C)=O)cc3)nc2-c2ccccc2)cc1 | 110 | 106
Cc1cccc(-c2nc(Cn3c(=O)cc(-c4ccccc4)c4c(C)nn(C)c43)c(C)o2)c1 | 108 | 110
O=C(CSc1nc2c(oc3ccccc32)c(=O)n1Cc1ccco1)Nc1ccccc1Cl | 103 | 106
COc1ccc(C2=C(C)C(N3CCN(c4ccc(OC)cc4)CC3)=NS2(=O)=O)cc1 | 110 | 115
CCCCCn1cc2c(c1-c1ccc(Br)cc1)c(=O)n(C)c(=O)n2C | 108 | 112
Cc1cccc(C)c1NC(=O)c1c(C)oc2c1C1=NCCN1C=N2 | 105 | 108
CCOc1ccccc1NC(=O)c1cc(S(=O)(=O)NC2CCCC2)ccc1F | 106 | 104
Cc1ccccc1NC(=O)c1c(NC(=O)C(C)Oc2cccc(Cl)c2)sc2c1CCCC2 (centres undefined) | 87* | 89*
Cc1cccc(OCC(=O)Nc2ccc(Cl)c(-c3nc4ccccc4[nH]3)c2)c1 | 108 | 111
CC(C)c1ccc(S(=O)(=O)c2nnn3c2nc(NCCc2ccccc2)c2sccc23)cc1 | 100 | 106
Cc1nn(S(=O)(=O)c2ccc(C(C)C)cc2)c(C)c1S(=O)(=O)N1CCCCCC1 | 104 | 101
CC(C)CCN(Cc1ccco1)C(=O)c1cc2c(s1)-c1ccccc1OC2 | 106 | 106
COCCNC(=O)c1sc2nc3n(c(=O)c2c1C)CCC3 | 109 | 113
CCOC(=O)N1CCN(C(=O)c2cnn(-c3cccc(C)c3)c2-n2cccc2)CC1 | 117 | 116
CC(C)c1ccc(NC(=O)c2cc3sc(Cl)cc3n2C)cc1 | 105 | 105
COc1ccc(NC(=O)Cn2c(=O)n(CCc3ccccc3)c(=O)c3ccccc32)cc1 | 104 | 109
Cc1ccc(S(=O)(=O)c2nnn3c2nc(NC2CCCCC2)c2sccc23)cc1C | 108 | 102
COC(=O)c1cc(NC(=O)Cn2nc(-c3ccccc3)c3c(c2=O)CCCC3)cc(C(=O)OC)c1 | 103 | 105
CCOC(=O)c1cc(-c2ccc(OC)cc2)n(CCC(=O)NC2CCC(C)CC2)c1C (centres undefined) | 102 | 101
Cc1cccc(C)c1NC(=O)Cn1c(SCC(=O)NCc2ccccc2)nc2ccccc21 | 108 | 111
COc1ccc(-c2noc(-c3ccc(N4CCN(c5ccccc5)CC4)c([N+](=O)[O-])c3)n2)cc1 | 113 | 116
CC1=C(c2ccc(F)cc2)S(=O)(=O)N=C1N1CCC(C(=O)NCCc2ccccc2)CC1 | 109 | 105
Cc1ccc(NC(=O)Cn2c(CCC(=O)O)ccc2-c2cccs2)cc1 | 108 | 108
O=C(c1ccc2c(c1)N(Cc1cccc(Cl)c1)C(=O)c1ccccc1S2(=O)=O)N1CCC(Cc2ccccc2)CC1 | 107 | 114
Cc1nnc(N2C(=O)c3oc4ccccc4c(=O)c3C2c2cccc(OCCC(C)C)c2)s1 (centres undefined) | 103 | 105

The list continues:
SMILES | PV pol inh | PV pol inh intensity
COc1ccc(N2CCN(C(CNC(=O)C(=O)NCc3cccnc3)c3cccnc3)CC2)cc1 (centres undefined) | 106 | 100
CCCCN(CC)C(=O)c1cc2c(=O)n3cccc(C)c3nc2n1C | 110 | 112
COc1ccc(C2=NN(C(C)=O)C(c3cn(-c4ccccc4)nc3-c3cccs3)C2)cc1 (centres undefined) | 104 | 103
CSc1cccc(Nc2cc(C(=O)NC3CCCCC3)c3ccccc3n2)c1 | 107 | 105
Cc1ccc(OCC(=O)N2CCN(CCc3ccncc3)CC2)cc1C | 109 | 112
CCOC(=O)c1c(C)[nH]c(CCC(=O)NCCCN2CCN(c3cc(C)ccc3C)CC2)c1C | 112 | 114
COc1ccccc1NC(=O)C1CCN(S(=O)(=O)c2cn(C)cn2)CC1 | 108 | 107
Cc1nc2c(C(=O)NCCc3ccc(Cl)cc3)c[nH]n2c(=O)c1Cc1ccc(Cl)cc1 | 107 | 109
COc1cccc(Nc2nc3ccc(C(=O)c4ccccc4)cc3n3c(C)nnc23)c1 | 109 | 113
CCOc1cc(C(=O)Nc2c(NC)c3ccccc3oc2=O)cc(OCC)c1OCC | 111 | 108
Cc1ccc(-n2ncc(C(=O)NCc3ccccc3C)c2-n2cccc2)cc1 | 103 | 106
CC(=O)c1cc(-c2ccc(F)cc2)n(CCC(=O)NCc2ccccc2C)c1C | 105 | 109
CCOc1ccc(N(CC(=O)NCc2ccc(C)cc2)S(=O)(=O)c2c(C)[nH]c(=O)[nH]c2=O)cc1 | 98 | 76
Cc1c(NC(=O)C(F)(F)F)ccc2nc3c(=O)n(C)c(=O)n(C)c3nc12 | 103 | 129
CCOc1ccc2nc(C)cc(Nc3ccccc3OCC)c2c1 | 102 | 95
CN(C)CCNC(=O)C1CCN(Cc2cc3ccccc3n2Cc2ccccc2)CC1 | 104 | 98
COc1cccc(NC(=O)CN(CCc2ccccc2)S(=O)(=O)c2ccc(Cl)cc2)c1 | 104 | 104
Cc1cccc(Cc2cnc(NC(=O)c3ccc4c(c3)CC(c3ccccc3)OC4=O)s2)c1 (centres undefined) | 113 | 116
CCOc1ccc2nc(NC(=O)c3cccn(Cc4ccc(C)cc4)c3=O)sc2c1 | 102 | 105
O=C(Nc1ccccc1C(F)(F)F)N1CC=C(c2c[nH]c3ccccc23)CC1 | 97 | 283
COc1cccc(-n2ccn(CC(=O)NCc3ccc(C)cc3)c(=O)c2=O)c1 | 109 | 113
COc1ccc(Cl)cc1-n1nnc(-c2nc(-c3ccccc3)no2)c1C | 102 | 100
Cc1cccc(OCC(=O)Nc2c(C(=O)N3CCN(c4ccccc4)CC3)oc3ccccc23)c1 | 107 | 106
Cc1ccc2[nH]c(=O)c3cc(C(=O)NCCc4ccc(Cl)cc4)sc3c2c1 | 110 | 112
COc1ccc(SCc2cc(=O)c3cc(Cl)ccc3[nH]2)cc1 | 110 | 109

Compound profiles, from the list above. Values in the order: PV pol inh, PV pol inh intensity
CN(C)CCNC(=O)C1CCN(Cc2cc3ccccc3n2Cc2ccccc2)CC1 reads 104, 98
O=C(c1ccc2c(c1)N(Cc1cccc(Cl)c1)C(=O)c1ccccc1S2(=O)=O)N1CCC(Cc2ccccc2)CC1 reads 107, 114

Single entries from the results shown.
Cc1cccc(OCC(=O)Nc2c(C(=O)N3CCN(c4ccccc4)CC3)oc3ccccc23)c1 in PV pol inh has 107
COc1ccc(N2CCN(C(CNC(=O)C(=O)NCc3cccnc3)c3cccnc3)CC2)cc1 (centres undefined) in PV pol inh has 106

(cont.)
SMILES | PV pol inh | PV pol inh intensity
COc1ccc(NC(=O)c2c(-c3ccc(C)cc3)nnc3ccccc23)c(OC)c1 | 102 | 102
COc1ccc(OC)c(CNC(=O)Cc2ccc(NC(=O)N3CCSc4ncccc43)cc2)c1 | 102 | 103
COc1ccc(NC(=O)Cn2c(SCc3c(F)cccc3Cl)nc3ccncc32)cc1OC | 105 | 107
CCOc1ccccc1NC(=O)C1=C(C)Nc2ncnn2C1c1ccc(NC(C)=O)cc1 (centres undefined) | 103 | 107
O=C(CC1C(=O)N(c2ccc(F)cc2)C(=O)N1Cc1cccnc1)Nc1ccc(F)cc1 (centres undefined) | 103 | 107
COc1ccc(Cn2c(CNS(=O)(=O)c3ccc4c(c3)CCCC4)nc3cccnc32)cc1 | 105 | 102
CCOc1ccccc1C(=O)Oc1c(S(=O)(=O)c2ccc(C)cc2)c(C)nn1-c1ccccc1 | 107 | 113
Oc1ccc(NCc2ccccc2OCc2ccccc2Cl)cc1 | 93 | 91
Cc1ccccc1-c1noc(-c2ccc(N3CCCCC3)c([N+](=O)[O-])c2)n1 | 103 | 100
Cc1ccc(NC(=O)Nc2nnc(N(C)Cc3ccccc3)s2)c(C)c1 | 108 | 113
COc1ccc(OC)c(CCNc2ncnc3onc(C)c23)c1 | 113 | 105
Cc1ccc(CSc2nncn3c2cc2sccc23)cc1 | 117 | 111
Cc1cccc(-c2nnc(C3CCN(S(=O)(=O)c4cccc(Cl)c4)CC3)o2)c1 | 104 | 109
O=c1c2ccccc2n(Cc2cccc(F)c2)c(=O)n1Cc1ccccc1Cl | 104 | 103
Cc1cc(C)c(NC(=O)Cn2c(=O)n(-c3ccc(F)cc3)c(=O)c3c(C)c(C(=O)N(C)C)sc32)c(C)c1 | 101 | 108
CCc1ccc(-n2c(=O)c3c4c(sc3n(CC(=O)N3CCC(C)CC3)c2=O)CCC4)cc1 | 104 | 106
Fc1ccc2c(c1)-c1nc(-c3ccccc3)cc(-c3ccccc3)c1CO2 | 108 | 111
CC(C)Oc1ccc(CNC(=O)C2CCCCN2S(=O)(=O)c2ccc(F)cc2)cc1 (centres undefined) | 113 | 109
COc1ccccc1CNC(=O)CN1C(=O)CCc2cc(S(=O)(=O)N3CCCCC3)ccc21 | 107 | 109
COc1ccc(Cl)cc1NC(=O)CSc1nc(-c2ccco2)cc(C(F)(F)F)n1 | 104 | 105
CCc1ccc2nc(N(CCN(CC)CC)C(=O)c3ccco3)sc2c1 | 108 | 110
Cc1cccc(CNS(=O)(=O)c2ccc(-c3coc(C)n3)cc2)c1 | 107 | 116
COc1ccc(OCC(=O)NCC(c2ccc(Cl)cc2)N2CCCCC2)cc1 (centres undefined) | 109 | 109
COc1ccc(C(=O)Nc2nnc(S(=O)(=O)N3CCCCCC3)s2)cc1OC | 102 | 106
CC1=C(c2ccc(C(C)C)cc2)S(=O)(=O)N=C1N1CCN(c2ccccc2F)CC1 | 109 | 117

Brought forward from above: 4 compounds, followed by the next part.
SMILES | PV pol inh | PV pol inh intensity
Cc1cccc(CNS(=O)(=O)c2ccc(-c3coc(C)n3)cc2)c1 | 107 | 116
COc1ccc(OCC(=O)NCC(c2ccc(Cl)cc2)N2CCCCC2)cc1 (centres undefined) | 109 | 109
COc1ccc(C(=O)Nc2nnc(S(=O)(=O)N3CCCCCC3)s2)cc1OC | 102 | 106
CC1=C(c2ccc(C(C)C)cc2)S(=O)(=O)N=C1N1CCN(c2ccccc2F)CC1 | 109 | 117
Cc1cc(NC(=O)CC(C)C)cc(-c2nc3ncccc3o2)c1O | 107 | 106
O=C(Nc1ccc2c(c1)N(C1CCCC1)C(=O)c1ccccc1S2)c1ccccc1F | 109 | 110
Cc1cn(C)c(CC(=O)Nc2ccc(F)cc2Cl)c1C(=O)O | 100 | 107
CCCNc1ncnc2c1c(-c1ccccc1)cn2-c1ccccc1 | 109 | 104
Cn1c(=O)oc2cc(S(=O)(=O)N3CCCC(C(=O)N4CCN(c5ccccc5F)CC4)C3)ccc21 (centres undefined) | 116 | 117
COc1ccc(CCNc2nc3ccc(C)cc3n3cnnc23)cc1OC | 106 | 112
COc1ccc(C2Nc3ccccc3-c3nnc(SC)nc3O2)cc1C (centres undefined) | 100 | 106
CCCCn1c(=O)nc2n(-c3ccc(F)cc3)c3ccccc3cc-2c1=O | 107 | 108
CCOC(=O)c1ccc(N2CCN(c3ccccc3F)CC2)c(NC(=O)Nc2ccc(Cl)c(Cl)c2)c1 | 107 | 106
Cc1cccc(-c2nn3c(=O)cc(CN4CCN(S(=O)(=O)c5ccc(Cl)cc5)CC4)nc3s2)c1 | 105 | 106
CCOC(=O)c1cc(S(=O)(=O)N2CCN(c3ccc(OC)cc3)CC2)[nH]n1 | 106 | 99
Cc1cc2c(cc1S(=O)(=O)N(CCN(C)C)Cc1ccccc1)OCC(=O)N2 | 108 | 114
COc1cccc(CNCc2c(C(=O)O)n(Cc3ccc(C)cc3)c3cc(C)ccc23)c1OC | 112 | 104
CSc1nc(-c2ccc(F)cc2)nc2c1Cc1c(CO)cnc(C)c1O2 | 104 | 105
Cc1ccccc1CN1C(=O)c2ccccc2Sc2ccc(C(=O)NCc3ccccc3)cc21 | 106 | 111
COc1cccc(/C=C/c2nc(C#N)c(N3CCCCC3)o2)c1 | 107 | 106
CC(C)CN(CCNC(=O)c1cc(=O)[nH]c2ccc(S(=O)(=O)N3CCCCCC3)cc12)CC(C)C | 104 | 106
COc1ccc(-n2ncc(C(=O)Nc3ccc4c(c3)OCCO4)c2C2CCN(C(=O)OC(C)(C)C)CC2)cc1 | 101 | 97
Cc1cc2c(cc3c(SCC(=O)Nc4ccc(Cl)cc4F)nncn32)o1 | 106 | 109
Cc1cc(C)c(NC(=O)CSc2nc3ccncc3[nH]2)c(C)c1 | 106 | 97
Cc1cc(C)c2c(NC(=O)c3ccccc3Cl)c(C(=O)Nc3ccc(C)c(C)c3)sc2n1 | 100 | 105
Cc1cccc(NC(=O)c2cc3c(=O)n4ccccc4nc3n2C)c1C | 108 | 112
CCc1ccc(S(=O)(=O)c2cn(CC(=O)Nc3ccc(C)cc3)c3ccccc3c2=O)cc1 | 112 | 114
Cc1ccccc1NC(=O)c1c(C)oc2ccc(O)c(CN(C)Cc3ccccc3)c12 | 103 | 99
CCn1nc(-c2ccccc2)c(-c2ccccc2)c(C(=O)OCCOC)c1=O | 100 | 103

Continued (6 carried over from the part before).
SMILES | PV pol inh | PV pol inh intensity
Cc1cc(C)c(NC(=O)CSc2nc3ccncc3[nH]2)c(C)c1 | 106 | 97
Cc1cc(C)c2c(NC(=O)c3ccccc3Cl)c(C(=O)Nc3ccc(C)c(C)c3)sc2n1 | 100 | 105
Cc1cccc(NC(=O)c2cc3c(=O)n4ccccc4nc3n2C)c1C | 108 | 112
CCc1ccc(S(=O)(=O)c2cn(CC(=O)Nc3ccc(C)cc3)c3ccccc3c2=O)cc1 | 112 | 114
Cc1ccccc1NC(=O)c1c(C)oc2ccc(O)c(CN(C)Cc3ccccc3)c12 | 103 | 99
CCn1nc(-c2ccccc2)c(-c2ccccc2)c(C(=O)OCCOC)c1=O | 100 | 103
CCc1ccc(NC(=O)CN2C(=O)CCSc3ccc(S(=O)(=O)N4CCCC4)cc32)cc1 | 109 | 112
CCOC(=O)c1c(S(=O)(=O)NCC(=O)Nc2cccc(CC)c2)c(C)n(C)c1C | 104 | 100
Cc1ccccc1-c1nnc(CN2CCN(c3cc(Cl)ccc3C)CC2)o1 | 102 | 106
Cc1cc(C)c(NC(=O)CSc2ccc(-c3sc(-c4ccccc4)nc3C)nn2)c(C)c1 | 106 | 104
CCOc1cc2c(cc1OCC)C(CC(=O)O)N(C(=O)Nc1ccc(Br)c(C)c1)CC2 (centres undefined) | 94 | 97
O=c1[nH]c(C2CCCN(S(=O)(=O)c3ccccc3Cl)C2)nc2c1nnn2Cc1ccc(OC(F)(F)F)cc1 (centres undefined) | 104 | 110

From PubChem

A portion of the library, so the mix of outcomes need not match the whole.
